# Source: PubChem (National Center for Advancing Translational Sciences (NCATS))
# gsp antag – antagonists of gsp mutant (McCune-Albright syndrome); AID 624288; gsp-mutant cells, cAMP HTRF, 30 min; control for the full effect not named in the record; Potency, µM (series often up to 76.9 µM), without a hit: top-dose activity change, negative = inhibition, most hits filed as inhibitors; actives 0.4% (n = 340,000); active = falling curve of any shape with a large fitted effect; inconclusive = falling curve, mostly with a smaller effect; inactive = flat or rising curve; cell line not stated here;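 note: intracellular cAMP measured with PDE inhibitor Ro 20-1724 present during compound exposure; potency is the fitted concentration of half-maximal effect; % is set by controls: 0 for no effect and ±100 for the full control effect; nearly all actives have a fitted effect of over 65% in size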
#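 Cells in G418 medium, seeded 16-24 h, 37C; buffer exchange to DPBS + 1 mM CaCl2, 0.5 mM MgCl2, 0.05% BSA; cpds in DMSO + […] (300 uM stock), 30 min 37C; HTRF cAMP detection.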
# gsp agonist – agonists of gsp mutant (McCune-Albright syndrome). gsp mutant cells, cAMP HTRF, 30 min; control for the full effect not named in the record. Potency, µM (top dose mostly 76.9 µM), inactives show at the top dose activation (cAMP increase), most hits filed as activators. actives 0.13% (n = 340,000); active = well fitted activation curve with a large enough effect; inconclusive = small, poorly fitted or top-dose-only effect, or another doubt; inactive = no such curve, though single readings can be large or run the other way; cell line not stated here;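 note: phosphodiesterase inhibitor Ro 20-1724 added with compounds to block cAMP breakdown; potency is the fitted concentration of half-maximal effect; nearly all actives have a fitted effect of over 60% in size; about a fifth of the inactives were tested at one dose only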
#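 Cells in DMEM/10% FBS with G418 were pretreated with compounds in DMSO plus […] (300 uM stock) for 30 min at 37C. cAMP was measured by HTRF (cAMP-d2 plus anti-cAMP antibody-K) after 30 min at room temperature.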
# TRPML1 inh – human mucolipin-1 channel inhibition. TRPML1-inducible cells, Ca2+ dye fluorescence, FDSS; active compounds read low; inhibition of EC80 agonist-evoked calcium signal. activity change, negative = inhibition, % (no concentration beside the values). actives 0.02% (n = 390,000); in the data active means activity change below about -50%; inconclusive means about -30% to -50%; inactive means above about -30%;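 note: stimulus is agonist 54-4 at its EC80 concentration; % is set by controls: 0 for no effect and ±100 for the full control effect; compound concentration not given in the record; the text of the record puts the active cut at -80%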
# Target sequence (Q9GZU1 whole entry, looked up): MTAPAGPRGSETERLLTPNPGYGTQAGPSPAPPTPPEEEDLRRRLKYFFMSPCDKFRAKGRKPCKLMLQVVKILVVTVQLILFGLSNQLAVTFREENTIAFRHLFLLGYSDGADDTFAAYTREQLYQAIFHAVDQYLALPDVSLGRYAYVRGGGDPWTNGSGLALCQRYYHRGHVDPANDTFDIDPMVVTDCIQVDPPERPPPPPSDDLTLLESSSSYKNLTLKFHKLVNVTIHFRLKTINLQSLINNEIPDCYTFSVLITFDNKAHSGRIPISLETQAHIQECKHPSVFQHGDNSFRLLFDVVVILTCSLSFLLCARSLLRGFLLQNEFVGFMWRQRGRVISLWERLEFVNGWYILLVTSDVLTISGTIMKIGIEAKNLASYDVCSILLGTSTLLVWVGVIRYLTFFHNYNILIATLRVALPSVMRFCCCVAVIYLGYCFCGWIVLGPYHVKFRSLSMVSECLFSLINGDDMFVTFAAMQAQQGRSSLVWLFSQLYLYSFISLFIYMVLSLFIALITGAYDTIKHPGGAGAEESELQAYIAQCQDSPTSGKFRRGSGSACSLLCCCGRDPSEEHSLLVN
#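 TRPML1-DL cells, Tet-induced overnight (~16 h, 37 °C) at 1,500 cells/well, were loaded with Ca8 no-wash dye plus quencher for 45-90 min at room temperature. Compounds were pinned during FDSS kinetic reading; agonist 54-4 at EC80 (4 uM final) then added.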
# TRPV1 PAM – human TRPV1 potentiation | actives 0.02% (n = 320,000) | Q8NER1 | potentiation, % at 8.33 µM | TRPV1-expressing cells, Fluo-8 calcium influx, capsaicin EC20 potentiation; host cell line not named in the record; control for the full effect not named in the record; active means potentiation above 80%; inconclusive means 30% to 80%; inactive means below 30%; note: 0% is about no effect
#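 Fluo-8 calcium influx in TRPV1-expressing cells, kinetic read (ex 480/em 520 nm). Compound added and read 3 min for agonist activity, followed by capsaicin at EC20 final and 2 min further read for enhancement.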
# Menin MLL FP FL – displaces fluorescein MLL peptide from human menin | Fluorescence polarization, fluorescein-MLL peptide displacement from menin | FP activity change, % at 61.4 µM | 290,000 tested, under 10 active | AID 1766; inconclusive = falling polarisation curve, or a change in total fluorescence; inactive = total fluorescence flat and polarisation flat or rising; no compound was filed as active; the % refers to the polarisation; negative = inhibition;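 note: % of control where 0% means no effect; inhibitors lower the polarisation; unlabelled MLL peptide was the positive control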
# ClpP mod – qHTS Assay for Activators of ClpP | Potency, µM (titrated, usually from 57.5 µM), without a hit: at the highest dose activity change, negative = active | actives 1.9% (n = 340,000) | AID 651965, 2013 | ATP-dependent Clp protease proteolytic subunit (Bacillus subtilis (strain 168)), P80244 | purified B. subtilis ClpP, FRET peptide cleavage, 20 min; active = well fitted falling curve with a large enough effect; inconclusive = small, poorly fitted or top-dose-only effect; inactive = no such curve, though single readings can be large or run the other way; note: potency is the fitted concentration of half-maximal effect; the source files actives as falling curves though it sought activators and does not explain the sign; nearly all actives have a fitted effect of over 65% in size; many hits overshoot -100%
# Target sequence (P80244 whole entry, looked up): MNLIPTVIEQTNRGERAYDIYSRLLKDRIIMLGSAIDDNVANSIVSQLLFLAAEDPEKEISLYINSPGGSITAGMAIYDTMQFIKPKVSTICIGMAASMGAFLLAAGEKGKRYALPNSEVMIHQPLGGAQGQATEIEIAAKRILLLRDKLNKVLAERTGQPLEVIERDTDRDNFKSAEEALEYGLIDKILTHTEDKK
#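 Purified B. subtilis ClpP, 10 microg/mL final in Tris/HCl pH8 with KCl, BSA, glycerol and Tween-20, cleaved an Abz/nitrotyrosine-quenched decapeptide. Fluorescence (ex 320, em 430) was read at 0 and 20 min at room temperature. Delta was normalized to 5.8 microM ADEP and DMSO/no-enzyme controls.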
# Sfp PPTase inh – inhibitors of Bacillus subtilis Sfp phosphopantetheinyl transferase; Q9F4F7; Biochemical Sfp PPTase activity, qHTS; Potency, µM, inactives show max response, negative = inhibition, most hits filed as inhibitors; actives 3.5% (n = 310,000); AID 1490; active = well fitted inhibition curve with a large enough effect; inconclusive = small, poorly fitted or top-dose-only effect, or another doubt; inactive = no such curve, though single readings can be large or run the other way;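 note: the enzyme is Sfp with the accession as filed and its product quenches rhodamine fluorescence; potency is the fitted concentration of half-maximal effect; 0% = enzyme reaction without inhibitor and -100% = no enzyme wells; top concentration of the series not given in the record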
#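 Fluorescence-quenching assay: 15 nM Sfp-PPTase preincubated 15 min at room temperature with compound, then 5 uM rhodamine-CoA and 12.5 uM BHQ-2-labelled YbbR peptide added. Fluorescence (ex 525/em 598 nm) read at start and after 30 min; difference gives rate.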
# Starred values were filed as active, the others as inactive; ? = inconclusive; · = no result given; & = joins results of further samples; [ ] = remark or other dose.
SMILES,gsp antag,gsp agonist,TRPML1 inh,TRPV1 PAM,Menin MLL FP FL,ClpP mod,Sfp PPTase inh
COc1cc2c(cc1NC(=O)c1cc(-c3ccncc3)nc3ccccc13)oc1ccccc12,14%,22%,15,7,9.8,-25%,?
CCOc1cc(C2C(C#N)=C(N)Oc3cc(N)ccc32)ccc1O (centres undefined),-3%,-31%[15.4 µM],-21,-10,15,-2.4%,-20%
CSc1ccc(CNCCCSc2ncccn2)cc1,7%,-51%[15.4 µM],-2,11,1.8,8.9µM*,11%
O=C(C1CCC(=O)N1C1CCCCC1)N1CCN(c2ccc(F)cc2)CC1 (centres undefined),-5%,-40%[inhibitor],8,2,1.4,-2.8%,16%
Cn1ccc2c(OCC(=O)Nc3ccc([N+](=O)[O-])cc3)cccc2c1=O,·,·,22,6,·,-2.9%,·
Cc1ccc(C(CNS(=O)(=O)c2ccc(F)cc2)N2CCN(C)CC2)cc1 (centres undefined),16%,1%,-2,-19,·,-0.1%,·
N#CN(CC(N)=O)c1nc(N2CCCCC2)nc(N2CCCCC2)n1,0%,-3%,-16,6,0.4,-1.3%,4%
Cc1ccc(N(CC(=O)O)S(C)(=O)=O)cc1Cl,0%,-22%,-4,-4,-0.7,-2.1%,6%
CCN(CC)S(=O)(=O)c1ccc2c3c(cccc13)C(=O)N2,15%,?,-7,7,6.4,-29%,0%
FC(F)(F)c1cccc(N2CCN(C(=S)NCC3CCCO3)CC2)c1 (centres undefined),-22%,-11%[15.4 µM],5,-18,-2.6,·,-6%
O=C(Cc1cccs1)Nc1nc(-c2ccc(F)c(F)c2)cs1,-16%,-23%,3,-11,-1.4,·,8%
Cc1ccc(S(=O)(=O)N2CCCC2)cc1[N+](=O)[O-],4%,7%,-18,-5,4.0,-0.9%,16%
C=CCN1C(=O)c2ccc(C(=O)N(C)CC(=O)Nc3ccccc3Br)cc2C1=O,15%,5%,-5,5,·,22µM*,16%
Cc1cc(=O)[nH]c(SCC(=O)N(CCC#N)c2ccccc2)c1C#N,-9%,-20%,-6,-6,-7.6,·,14%
O=C(NCCc1c[nH]c2ccccc12)/C(=C\c1cccnc1)NC(=O)c1ccccc1F,-1%,-5%,10,1,4.6,·,18%
COc1ccc(S(=O)(=O)NC(CC(=O)NCc2ccco2)C(C)C)cc1 (centres undefined),7%,3%,4,-2,1.7,-12%,16%
CCOc1ccc(NC(=O)c2cccc(NC(C)=O)c2)cc1S(=O)(=O)N1CCCC1,3%,16%,1,1,·,-3.5%,·
O=C(/C=C/c1ccccc1)NC(=O)c1ccccc1O,-14%,-13%,-1,-13,-3.9,-0.1%,12%
O=C(NCCc1cccs1)c1ccc(Cl)c(Cl)c1,3%,0%[15.4 µM],5,-16,0.0,2.4%,-1%
CCOC(=O)c1ccccc1NC(=O)c1ccc2nc[nH]c2c1,-5%,2%,·,-10,-11,-5.4%,-3%
CC(C)N(Cc1ccccc1)C(=O)COC(=O)c1cc[n+]([O-])cc1,13%,-9%,-15,·,·,0.8%,·
Cn1c(C(C#N)C(=O)Cc2cccc3ccccc23)nc2ccccc21 (centres undefined),10%,18%,5,?,-4.1,-0.1%,25%
NC(=O)C1CCN(CC(=O)c2c[nH]c3ccc(F)cc23)CC1,3%,-4%,-5,?,-3.2,-3.7%,?
Cc1nc(SCC(=O)Nc2ccc(F)cc2)c(C#N)c(C)c1CC(=O)c1ccc(Br)cc1,-3%,?,-6,-2,-0.1,0.1%,-2%
CC(C)(C)N(Cc1ccccc1)C(=O)CN1C(=O)NC2(CCCCCC2)C1=O,13%,-4%,-7,1,·,3.3%,·
CCn1c(C)nc2cc(C(=O)NNC(=O)CCC3CCCC3)ccc21,12%,0%,-13,-9,0.1,1.1%,2%
CCCn1c(N)c(N(CCOC)C(=O)c2ccccc2F)c(=O)[nH]c1=O,9%,-65%[inhibitor],28,-2,0.0,·,9%
Cc1ccc(C(=O)Nc2ccccc2N2CCCC2)cc1S(=O)(=O)N1CCOCC1,0%,-8%,11,-21,·,0.4%,·
Cc1ccc(-c2n[nH]c(=O)c3ccccc23)cc1S(=O)(=O)Nc1ccc(F)cc1,-13%,0%[15.4 µM],53,-8,-1.1,·,-7%
CCOC(=O)C1CCCN(C(=O)CC(C)c2ccccc2)C1 (centres undefined),10%,-65%[inhibitor],9,-3,2.6,-0.6%,16%
COc1cc(OC)c2c(c1)C(=O)OC2,10%,9%,4,-6,8.2,-11%,?
COc1ccc(CCN(Cc2cccs2)S(=O)(=O)c2ccc(S(=O)(=O)N3CCC(C)CC3)cc2)cc1OC,10%,14%,8,4,2.7,-0.9%,17%
COC(=O)c1ccc(Cl)c(NC(=O)c2cccc([N+](=O)[O-])c2C)c1,11%,5%,15,-13,0.9,·,8%
O=C(Nc1ccccc1)c1ccccc1NC(=O)c1ccccc1C(=O)O,5%,18%[15.4 µM],-7,·,·,·,·
O=C(NCCc1ccccc1)C(=O)NCC1OCCN1S(=O)(=O)c1ccc([N+](=O)[O-])cc1 (centres undefined),9%,2%[15.4 µM],-3,-9,2.4,·,-29%
CCCOc1ccc(C(=O)Nc2ccc(NC(=O)c3cccs3)cc2)cc1,4%,-22%,-3,0,-4.4,·,11%
COc1cccc(C(=O)N2CCC(C(=O)N3CCN(C)CC3)CC2)c1,3%,7%,7,0,-2.1,·,15%
CC(C)(C)C1CCc2c(sc(NC(=O)c3ccco3)c2C(N)=O)C1 (centres undefined),10%,-2%,-2,7,1.8,107%,0%
Cc1ccc(S(=O)(=O)N2CCCC(C(=O)NNCC(=O)Nc3cc(F)ccc3F)C2)cc1 (centres undefined),·,-12%[15.4 µM],-11,4,2.2,·,11%
O=C(NCCc1ccccc1)/C(=C/c1ccco1)c1ccccc1,-13%,4%,8,-32,27,0.7%,6.3µM*
COc1cccc2c1OC1(N3CCOCC3)CCCCC1C2C[N+](=O)[O-] (centres undefined),·,-6%,3,·,·,-3.2%,·
COc1ccc(S(=O)(=O)NCc2ccc(C)cc2)cc1,11%,25%,11,6,2.6,0.1%,7%
O=C(Cc1ccc(Cl)cc1)Nc1ccc(N2CCN(C(=O)c3ccco3)CC2)c(Cl)c1,-12%,11%,-8,9,0.8,-0.7%,19%
COc1ccc(NC(=O)CCC(=O)c2ccc(-c3ccccc3)cc2)cc1,7%,-8%,3,?,8.1,1.7%,11%
COc1cc(C(C)=O)ccc1OCc1cc(C(=O)N2CCSCC2)no1,-13%,18%[15.4 µM],5,6,-3.0,-8.9%,-5%
COc1ccccc1N(CC(=O)NCCSCc1ccc(Cl)cc1)S(C)(=O)=O,-7%,?,-19&-4,?,-0.2,0.9%&0.7%,11%
COC(=O)c1ccc(NC(=O)C(=O)c2cccn2C)cc1,6%,0%,-14,-34,6.9,0.8%,22%
CCOc1[nH]n(-c2ccccc2)c(=O)c1C=Nc1ccc(C)cc1,8%,32%,-7,5,-2.4,0.7%,15%

# The list goes on, overlapping the part above by 2 compounds.
SMILES,gsp antag,gsp agonist,TRPML1 inh,TRPV1 PAM,Menin MLL FP FL,ClpP mod,Sfp PPTase inh
COC(=O)c1ccc(NC(=O)C(=O)c2cccn2C)cc1,6%,0%,-14,-34,6.9,0.8%,22%
CCOc1[nH]n(-c2ccccc2)c(=O)c1C=Nc1ccc(C)cc1,8%,32%,-7,5,-2.4,0.7%,15%
O=C(Cc1coc(-c2ccc(F)cc2)n1)Nc1ccccc1,6%,-14%,-2,-16,-0.6,-5.1%,-3%
Fc1ccc(-n2c(-c3cccs3)nc3nc4ccccc4nc32)cc1,-1%,-14%[15.4 µM],10,-11,0.8,0.9%,-4%
CCOC(=O)c1sc(NC(=O)CSc2ccccn2)c(C#N)c1C,-12%,-22%,-2,12,2.7,-0.3%,15%
C/C=C/C=C\C(=O)Nc1cccc(C2=NOC3(C2)C[C@@H](C(N)=O)N(C(=O)/C(C)=C/C)C3)c1 (some centres undefined),6%,-29%,-5,26,6.5,2.6%,25µM*
CCOC(=O)c1sc(NC(=O)CCN2C(=O)c3cccc([N+](=O)[O-])c3C2=O)c(C(=O)OCC)c1C,-2%,-26%,-5,28,3.2,-1.7%,5%
COc1ccc(C(=O)NCC(=O)N2CCC3(CC2)NCCc2[nH]cnc23)cc1,1%,-42%[inhibitor],-6,-8,-1.6,-0.6%,10%
Cc1ccc(C(=O)NNC(=O)COC(=O)COc2ccccc2C#N)cc1,11%,?,6,7,·,-0.3%,·
c1ccc(-c2nnc(SCc3nc4ccccc4[nH]3)n2Cc2ccco2)nc1,-2%,3%,-8,-5,2.8,-2.2%,-6%
CCOc1ccc(CNC(=O)CCc2cn(C)c3ccccc23)cc1,-7%,-34%[inhibitor],5,0,-1.0,·,1%
CC(NC(=O)COC(=O)c1ccc(CO)cc1)C1CC2CCC1C2 (centres undefined),10%,35%,38,-4,·,-0.4%,·
Cc1ccc(S(=O)(=O)N2CCN(C(=O)COC(=O)COc3ccc(Cl)cc3C)CC2)c(C)c1,1%,?,9,·,·,-1.5%,·
COc1cccc(NC(=O)NCCN2CCCCC2)c1,11%,-21%,-3,-11,1.8,-0.7%,19%
O=C(CSc1ncnc2sc3c(c12)CCC3)NCC1CCCO1 (centres undefined),18%,?,7,-2,·,-13%,8%
O=C(COC(=O)c1cnccn1)c1ccc2c(c1)CCCC2,0%,-31%[inhibitor],-4,5,0.2,0.7%,7%
CCOC(=O)C1CCN(C(=O)CNS(=O)(=O)c2cccs2)CC1,-8%,?,-5,-2,-0.5,0.4%,13%
O=C(CCCN1C(=O)c2ccccc2C1=O)Nc1cccnc1,11%,16%,5,28,2.7,-3.9%,-3%
O=C(Nc1ccc(N2CCN(C(=O)c3ccccc3)CC2)cc1)c1cccnc1,-15%,6%[15.4 µM],28,15,0.3,·,-1%
CCOc1ccc2ccccc2c1/C=N/NC(=O)CNC(=O)c1ccccc1O,-16%,?,8,13,-0.2,·,10%
